VDR inh: Inhibitors of the vitamin D receptor (VDR): qHTS. 400,000 tested, 0.93% active. Vitamin D3 receptor (Homo sapiens), P11473. Potency, µM, without a hit: max response, negative = inhibition, most hits filed as inhibitors. VDR-SRC2-3 peptide fluorescence polarization, 2 h; active = well fitted inhibition curve with a large enough effect; inconclusive = small, poorly fitted or top-dose-only effect, or another doubt; inactive = no such curve, though single readings can be large or run the other way; also: series mostly up to about 120 µM
Target sequence (P11473 whole entry, looked up): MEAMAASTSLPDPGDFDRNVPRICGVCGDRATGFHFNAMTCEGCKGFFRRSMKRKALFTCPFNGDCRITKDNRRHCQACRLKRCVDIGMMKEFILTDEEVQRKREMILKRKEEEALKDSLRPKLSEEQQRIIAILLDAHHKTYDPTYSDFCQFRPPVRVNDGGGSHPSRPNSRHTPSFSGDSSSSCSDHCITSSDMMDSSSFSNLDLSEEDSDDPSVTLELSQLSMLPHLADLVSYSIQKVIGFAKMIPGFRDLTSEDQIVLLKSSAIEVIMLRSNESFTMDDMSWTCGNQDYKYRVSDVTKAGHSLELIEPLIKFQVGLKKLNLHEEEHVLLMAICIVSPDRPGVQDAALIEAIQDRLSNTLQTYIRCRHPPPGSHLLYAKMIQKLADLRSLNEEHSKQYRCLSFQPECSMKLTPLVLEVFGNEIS
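Fluorescence polarization assay measuring small-molecule disruption of VDR binding to the coregulator peptide SRC2-3. Compounds were pin-transferred (23 nl) into the reagent mix and incubated 2 h at room temperature before reading.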
Numbers without * were called inactive; & = joins results of further samples. % is scaled to controls: 0 for no effect and ±100 for the full control effect; potency is read from the fitted curve at half-maximal effect.

A first look:
For CC(=O)Nc1ccc(S(=O)(=O)Nc2nc3ccccc3nc2N2CCCCCC2)cc1 the results were VDR inh 0.5%.
Screening O=C(NCCc1ccccc1)c1ccc(CS(=O)(=O)c2ccc(Br)cc2)o1 returned VDR inh 19.7%&-1.7%.

All compounds of this part, repeating the preview:
For CC(=O)Nc1ccc(S(=O)(=O)Nc2nc3ccccc3nc2N2CCCCCC2)cc1 the results were VDR inh 0.5%.
Screening O=C(NCCc1ccccc1)c1ccc(CS(=O)(=O)c2ccc(Br)cc2)o1 returned VDR inh 19.7%&-1.7%.
For CCOc1ccc(/C=N/n2cnnc2)cc1 the results were VDR inh 7.5%.
For CCOC(=O)COc1ccc(/C=C2\NC(=S)N(CC)C2=O)cc1 the results were VDR inh -3.1%.
Screening S=c1[nH]nc(COc2ccccc2)n1/N=C/c1ccccc1Cl returned VDR inh -27.7%.
`O=C(N/N=C/C=C/c1ccccc1)c1cc(C2CC2)[nH]n1` gave VDR inh 16.3%.
OC(C#CCN1CCCCC1)(c1ccccc1)c1ccccc1 was read as VDR inh -6.0%.
For Cc1cc(C)c(NC(=O)Cn2nnc(C(=O)NCc3ccco3)c2N)c(C)c1 the results were VDR inh -0.1%.
`O=C(CSc1nnc(NC(=O)CN2CCOCC2)s1)Nc1ccccc1` gave VDR inh 5.3%.
For CCn1c(/C=C/c2cccc([N+](=O)[O-])c2)nc2ccccc2c1=O the results were VDR inh -6.2%.
CN1CCN(c2ccc(S(=O)(=O)N3CCCCC3)cc2NC(=O)Cc2c(F)cccc2Cl)CC1 was read as VDR inh 1.7%.
COC(=O)Cn1c(=O)c2c(nc3n2CCCN3CCc2ccccc2)n(C)c1=O was read as VDR inh 4.6%.

2 records picked at random from those above, as already listed:
For Cc1cc(C)c(NC(=O)Cn2nnc(C(=O)NCc3ccco3)c2N)c(C)c1 the results were VDR inh -0.1%.
`O=C(CSc1nnc(NC(=O)CN2CCOCC2)s1)Nc1ccccc1` gave VDR inh 5.3%.

More entries follow.
`Cc1ccc(Cl)cc1N1CCN(CC(=O)Nc2ccc3[nH]c(=O)[nH]c3c2)CC1` gave VDR inh -17.7%.
Screening Cc1c(C(=O)NCc2cccs2)oc2ccc(Br)cc12 returned VDR inh -9.3%.
O=C(c1ccc(Cl)cc1)N1CCC(O)(CSc2ccccc2)CC1 was read as VDR inh -4.1%.
For CCOc1ccc(S(=O)(=O)N(C)c2ccc(OCC(=O)Nc3nccs3)cc2)cc1 the results were VDR inh 9.1%.
`CCN(CC)c1ccc(C(=O)NCc2ccc3c(c2)CCN3C(=O)c2ccc(F)cc2)cc1` gave VDR inh 12.4%.
`C/C(=C1/SC(=S)N(CCC(=O)O)C1=O)c1ccc(O)cc1` gave VDR inh 6.4%.
`O=C(Nc1ccccc1)Nc1ncc([N+](=O)[O-])s1` gave VDR inh -5.9%.
For c1cc2c3c(cccc3c1)C(N1CCCCCC1)=N2 the results were VDR inh -4.2%.
For C=CCn1c(SCC(=O)OCc2ccccc2)nc2c1c(=O)n(C)c(=O)n2C the results were VDR inh -1.9%.
Screening O=c1[nH]c2ccc(NCc3ccc(-c4ccc(F)cc4)o3)cc2[nH]1 returned VDR inh 18.1%.
For COc1ccc(C(=O)C2CCCN(C(=O)c3ccccc3C(C)=O)C2)cc1F (centres undefined) the results were VDR inh -6.0%.
`COc1ccccc1C(=O)O/N=C(\N)c1ccc(Cl)cc1` gave VDR inh -7.0%.
Screening CN(C)c1ccc(NC(=O)Nc2csc3ccccc23)cc1 returned VDR inh 0.0%.
`Clc1ccc(CSc2nc(NCCc3ccccc3)c3ccccc3n2)cc1` gave VDR inh 1.4%.
`COC(=O)CCCC1=CC2=C(c3ccccc3)C(=O)C(C)(OC(=O)C3CCCC3)C(=O)C2=CN1C1CCCC1` (centres undefined) gave VDR inh -19.1%.
Screening CCOC(=O)CSc1nc2sc3c(c2c(=O)n1CC)CC(C)(C)OC3 returned VDR inh 14.0%.
CCc1ccc(CNC(=O)C2CCCN(S(=O)(=O)N(CC)c3ccccc3)C2)cc1 (centres undefined) was read as VDR inh -18.3%.
`Cc1nn(C(=O)c2ccccc2F)c(C)c1S(=O)(=O)N1CCOCC1` gave VDR inh 5.2%.
CCCN1CCC(=O)N([C@H](CO)c2ccccc2)CC1 was read as VDR inh 2.7%.
COc1ccc(COC(=O)C2=C(C)NC(=O)NC2c2ccc(O)c(OC)c2)cc1 (centres undefined) was read as VDR inh 1.4%.
`O=C(CCN1C(=O)/C(=C\c2ccc(F)cc2)SC1=S)Nc1ccc(O)cc1` gave VDR inh -20.5%.
Screening FC(F)(F)c1cccc(CN2CCN(c3ncccn3)CC2)c1 returned VDR inh 13.4%.
`COc1ccc(C(O)c2nc3ccccc3n2C)cc1OC` (centres undefined) gave VDR inh 7.5%.
Screening CCOC(=O)CSc1nnc(CNC(=O)Cc2ccccc2)n1C returned VDR inh 5.6%.
`Cc1cc(C)cc(Oc2ccc(NC(=O)C3CC=CCC3C(=O)O)cc2)c1` (centres undefined) gave VDR inh -10.4%.
`Cc1cc(C)nc(NC(=O)c2cc3ccccc3o2)n1` gave VDR inh -0.1%.
`Clc1ccc(Nc2nc(-c3ccncc3)cs2)cc1` gave VDR inh 8.0%.
`COc1cccc(NC(=O)Cn2nnc(C(=O)NCc3cccs3)c2N)c1` gave VDR inh 6.3%&1.2%.
Nc1ccc(C(CC(=O)O)n2cccc2)cc1 (centres undefined) was read as VDR inh 16.5%.
For Cc1ccc([N+](=O)[O-])cc1N/C=C1\CCCCC1=O the results were VDR inh 8.1%.
`O=C(COc1ccc2ccccc2c1)N/N=C/c1ccccn1` gave VDR inh -18.4%.
`Cc1cc(C)c(C)c(S(=O)(=O)NCCCN2CCCC2=O)c1C` gave VDR inh 12.9%.
CCn1c(=N)n(CC(=O)C23CC4CC(CC(C4)C2)C3)c2ccccc21 was read as VDR inh 0.6%.
`Cc1cc(C)c(Cn2cnc3nc4c(cc3c2=O)CCCC4)c(C)c1` gave VDR inh 2.0%.
For O=C(Cn1c(=O)oc2cc(S(=O)(=O)N3CCCCC3)ccc21)Nc1cccc(Cl)c1 the results were VDR inh -7.6%.
`CCCSc1nc2c(cnn2-c2ccc(Cl)cc2)c(=O)[nH]1` gave VDR inh 2.7%.
For COc1ccccc1C(=O)NC(=O)COC(=O)C1CC2CCCC(C1)C2=O (centres undefined) the results were VDR inh -9.8%.
Screening COc1ccc(-n2c(SCC(=O)Nc3nccs3)nnc2-c2ccc(Cl)cc2)cc1 returned VDR inh -9.3%.
`N#CC1=C(N)Oc2n[nH]c(-c3ccccc3)c2C1c1ccsc1` (centres undefined) gave VDR inh -10.5%.
For COc1ccc(NC(=O)c2oc3ccc(S(=O)(=O)N4CCCCC4)cc3c2C)cc1 the results were VDR inh -5.0%.
O=C(Nc1ccccc1)Nc1ccc2ccccc2n1 was read as VDR inh -6.7%.
CCC(=O)N(Cc1cc(=O)[nH]c2ccccc12)c1cccc(C)c1 was read as VDR inh -3.8%.
Screening CN(Cc1ccc(F)cc1)S(=O)(=O)c1nnc(NC(=O)c2ccccc2Cl)s1 returned VDR inh 13.8%.
For O=C1CCc2cc(NS(=O)(=O)c3ccccc3)cc3c2N1CC3 the results were VDR inh -7.3%.
Screening Cc1ccc(NC(=O)c2ccc3c(c2)S(=O)(=O)c2ccccc2C3=O)cc1S(=O)(=O)N1CCOCC1 returned VDR inh -24.9%.
COc1cccc2cc(-c3nc4ccccc4[nH]3)c(=O)oc12 was read as VDR inh 6.8%.
Screening CC(C)c1nc(SCC(=O)N2CCN(c3ccccc3)CC2)c2c(=O)n(C)c(=O)n(C)c2n1 returned VDR inh -13.0%.
c1coc(CNCC2OCCc3ccccc32)c1 (centres undefined) was read as VDR inh 18.0%.
For CCCc1cc(Nc2ccccc2C)n2ncnc2n1 the results were VDR inh 2.0%.
For COc1ccc(NC(C)=O)cc1NC(C)C(=O)Nc1ccc(F)c(F)c1F (centres undefined) the results were VDR inh -10.8%.
`Cn1c(Nc2ccccc2)nc2ccccc21` gave VDR inh -2.4%.
`Cc1cccc(NC(=O)Nc2ccc(S(=O)(=O)Nc3onc(C)c3C)cc2)c1` gave VDR inh 2.7%.
CC(C)C(C(=O)NCC1CCCO1)N(C(=O)CNS(=O)(=O)c1ccccc1)c1ccc(F)cc1 (centres undefined) was read as VDR inh 7.5%.
`Nc1ncnc2c1ncn2C1OC(C(=O)NC2CC2)C(O)C1O` (centres undefined) gave VDR inh 6.0%.
Screening Cc1nc2nc(Cc3ccccc3)[nH]n2c(=O)c1Cl returned VDR inh -4.6%.
For COc1ccc(CNC(=O)CCn2ccc3cc(S(=O)(=O)N4CCCC4)ccc32)cc1 the results were VDR inh -13.2%.
`Cc1cc2c3c(cccc3n1)C(=O)c1ccccc1-2` gave VDR inh -9.9%.
Cc1ccccc1C1CCCN(Cc2nc(CC3CC3)no2)C1 (centres undefined) was read as VDR inh 0.4%.
For Cc1ccc(NC(=O)CSC2=C(C#N)C(c3ccco3)C3=C(CC(C)(C)CC3=O)N2)cc1 (centres undefined) the results were VDR inh 9.9%.
Screening COc1ccc(S(=O)(=O)N2CCCC2)cc1Br returned VDR inh inconclusive.
Cc1ccccc1NCC(=O)N/N=C/c1c(C)c(C(=O)c2ccc(Cl)cc2)n2ccccc12 was read as VDR inh 4.8%.
For O=C(NNC(=O)c1ccccn1)c1ccc(OC(F)F)cc1 the results were VDR inh -14.7%.
`CCCCCCCC(=O)NNC(=O)c1ccc([N+](=O)[O-])cc1` gave VDR inh 1.0%.
`CCOc1ccc(NC(=O)CSc2nc3c([nH]c4ccccc43)c(=O)n2-c2cc(C)cc(C)c2)cc1` gave VDR inh 5.4%.
For CCOc1ccc(C(=O)Nc2cccc(-c3nc4cccnc4s3)c2C)cc1OCC the results were VDR inh 14.4%.
Screening CCOc1cc(C(=O)N(C)c2ccccc2)cc(OCC)c1OCC returned VDR inh 3.7%.
Screening O=C(Cc1csc(-c2ccc(Cl)cc2)n1)Nc1cccc(S(=O)(=O)NC2=NCCC2)c1 returned VDR inh 3.4%.
CSc1ccccc1NC(=O)C1CCN(S(C)(=O)=O)CC1 was read as VDR inh -28.2%.
For CC(C)(C)c1ccc(C(=O)NCC(=O)N2CCC3(CC2)NCCc2[nH]cnc23)cc1 the results were VDR inh 4.0%.
Screening Cn1cc([N+](=O)[O-])c(C(=O)Nc2cnn(Cc3ccc(F)cc3)c2)n1 returned VDR inh -1.2%.
For O=C(O)c1cccc(Cn2c(Cl)c(/C=N/NC(=O)c3ccccc3O)sc2=O)c1 the results were VDR inh 8.6%.
`C[C@H](Oc1ccccc1)C(=O)N[C@@H]1C(=O)N2[C@@H]1SC(C)(C)[C@@H]2C(=O)O` gave VDR inh 1.3%.

Part of the list above in order of SMILES length, low to high:
For O=C(NNC(=O)c1ccccn1)c1ccc(OC(F)F)cc1 the results were VDR inh -14.7%.
Screening CCOc1cc(C(=O)N(C)c2ccccc2)cc(OCC)c1OCC returned VDR inh 3.7%.
`CCCCCCCC(=O)NNC(=O)c1ccc([N+](=O)[O-])cc1` gave VDR inh 1.0%.
Screening Cn1cc([N+](=O)[O-])c(C(=O)Nc2cnn(Cc3ccc(F)cc3)c2)n1 returned VDR inh -1.2%.
Cc1ccccc1NCC(=O)N/N=C/c1c(C)c(C(=O)c2ccc(Cl)cc2)n2ccccc12 was read as VDR inh 4.8%.
`CCOc1ccc(NC(=O)CSc2nc3c([nH]c4ccccc43)c(=O)n2-c2cc(C)cc(C)c2)cc1` gave VDR inh 5.4%.
`C[C@H](Oc1ccccc1)C(=O)N[C@@H]1C(=O)N2[C@@H]1SC(C)(C)[C@@H]2C(=O)O` gave VDR inh 1.3%.

Carrying on.
For COc1cc(/C=C2\CC/C(=C\c3cc(OC)c(O)c(OC)c3)C2=O)cc(OC)c1O the results were VDR inh -13.6%.
Screening O=C1[C@@H](Oc2ccccc2)[C@@H](c2ccncc2)N1c1ccccc1 returned VDR inh 22.4%.
For CCOC1=NN(c2ccc(Cl)cc2)C(=O)/C1=C\N(C)C the results were VDR inh -13.2%.
For CCOP(=O)(OCC)C(NC(=O)C(F)(F)F)c1ccccc1 (centres undefined) the results were VDR inh -19.3%.
For CCCS(=O)(=O)c1c(S(=O)(=O)CCC)c2cc(C(C)(C)C)ccn2c1C(=O)c1ccc(C)cc1 the results were VDR inh -9.6%.
COc1cc(/C=C2/SC(=S)N(CC(=O)NC(C)(C)C)C2=O)cc(OC)c1OC was read as VDR inh -6.2%.
COc1ccc(CCc2cc(OC)cc(=O)o2)cc1 was read as VDR inh 4.5%.
For CN(C)c1nc(NC(C)(C)C)nc(NC(C)(C)C)n1 the results were VDR inh 8.2%.
CCCn1c(=N)c(C(=O)NCc2cccnc2)cc2c(=O)n3ccccc3nc21 was read as VDR inh -15.5%.
For COc1ccc(-n2cc(C(=O)NCc3ccccc3)c3ccccc3c2=O)cc1 the results were VDR inh 3.1%.
Screening O=C(CN1CCN(CC(=O)Nc2ccccc2Cl)CC1)NCC1(N2CCOCC2)CCCCC1 returned VDR inh -7.4%.
Screening COc1ccc(C)cc1Nc1nc2c(S(=O)(=O)c3cccc(Cl)c3)nnn2c2ccsc12 returned VDR inh 4.5%.
`CC[C@@H](C)C(C(=O)N1CCN(C(=O)OC(C)(C)C)CC1)n1cc(-c2cn([C@@H](C)C(=O)N3CCN(C(=O)OC(C)(C)C)CC3)nn2)nn1` (some centres undefined) gave VDR inh -4.5%.
COc1ccc(S(=O)(=O)N2CCC3(CC2)OCCN3S(=O)(=O)c2c(C)cc(C)cc2C)cc1 was read as VDR inh -5.6%.
Screening COC(=O)CNc1n[nH]c(=S)[nH]c1=O returned VDR inh -0.7%.
`CCn1ncc(CN2CCCC(C(=O)Nc3cccc(-c4cc5ccccc5[nH]4)c3)C2)c1C` (centres undefined) gave VDR inh 19.1%.
`NC(=O)COC(=O)c1cccnc1Nc1ccccc1F` gave VDR inh 5.5%.
`COc1ccc(F)c(CN(C)CC2CCCN(CCc3ccc(F)cc3)C2)c1` (centres undefined) gave VDR inh inconclusive.
COCCNC(=O)c1ccc2nc(CCc3ccccc3)oc2c1 was read as VDR inh 0.5%.
For C=C1CCN([C@@H](Cc2ccccc2)C(=O)O)S(=O)(=O)c2ccccc21 the results were VDR inh -12.6%.

Bioassay records deposited in PubChem BioAssay by National Center for Advancing Translational Sciences (NCATS).

These rows are one share of the data. The share of hits here may be higher or lower than overall.
